# High-throughput results deposited in PubChem by Southern Research Institute.
# Mtb growth: Mycobacterium tuberculosis H37Rv growth inhibition, cell based, confirmatory dose response (AID 1949). most inactive calls were filed without a number and no value below 0 was filed. one-dose inhibition, % at 10 µg/mL; IC50 in µg/mL for titrated hits. 100,000 compounds, 1.6% hits;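 active = confirmed in a dose series; inconclusive = about 50% or more but not retested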;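 also: bacteria grown 7 days with compound before Alamar blue readout; 0% = untreated bacteria and 100% = reference antibiotic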
# Active calls of the source: *; i = inactive; ? = inconclusive.
Molecule,Mtb growth
CCc1cc(C(=O)OC)c(NC(=S)NCc2cn(-c3ccccc3)nc2-c2ccccc2)s1,i
C=CCNCC#CCOc1ccc(OC)cc1,i
COc1ccc(OCc2nc(-c3ccc(Cl)cc3)no2)cc1,9.9%
CCOc1cc(S(=O)(=O)NC2CC(C)(C)NC(C)(C)C2)ccc1Cl,i
Cc1ccc(S(=O)(=O)N2CCN(C(=O)COc3ccc4ccccc4c3)CC2)cc1,1.2%
CSc1ccccc1C(=O)NCCSc1ccc(C)cc1,i
S=C(Nc1ccc(Nc2ccccc2)cc1)N1CCN(C/C=C/c2ccccc2)CC1,i
COc1ccc(N(CC(=O)Nc2ccccc2F)S(=O)(=O)c2ccccc2)cc1OC,i
COc1ccc(C)cc1NC(=S)NNC(=O)Cc1ccc(Cl)c(Cl)c1,i
COc1ccccc1CNC(=O)C(=O)Nc1c(C)cccc1C,3.5%
CC1CC(Nc2ccccc2)c2ccccc2N1C(=O)c1cccnc1 (stereo not given),3.6%
CCOC(=O)c1cc(-c2ccccc2)sc1NC(=O)C1COc2ccccc2O1 (stereo not given),i
Cc1cccc(NC(=O)Cn2cnc3sc(-c4ccccc4)cc3c2=O)c1,i
CC(C)(C)NCCOCCOc1ccc(Cl)c(Cl)c1,i
O=C(CNC(=O)c1ccc(Br)cc1)NCC(=O)OCc1ccc(Cl)cc1,?
CCOC(=O)c1c(NC(=O)Cn2cnc3ccccc3c2=O)sc(C)c1C,i
CC(=O)N(C)c1ccc(NC(=O)COc2ccc(Cl)cc2C)cc1,2.2%
OCc1ccccc1OCc1ccccc1F,i
O=C(CSc1nc2sc3c(c2c(=O)n1-c1ccccc1)CCC3)N1CCCCCC1,i
COC(=O)C1=CN(C)C=C(C(=O)OC)C1c1cc(OC)c(OC)c(OC)c1,i
O=C1C2=C(Nc3ccccc3SC2c2ccccc2[N+](=O)[O-])c2ccccc21 (stereo not given),19.5%
Cc1cc(Br)ccc1OCCN1CCOCC1,i
COc1ccccc1OCc1nnc(SCC(=O)c2ccc(F)cc2)n1-c1ccccc1,i
Cn1c(CSCc2ccc(Cl)c(Cl)c2)nnc1SCC(=O)Nc1ccc([N+](=O)[O-])cc1,3.9%
CCn1c(COc2cccc3cccnc23)nnc1SCC(=O)c1ccc(Cl)cc1Cl,i
Cc1ccc(N2CCN(C(=O)c3ccc(Cl)cc3)CC2)cc1C,5.1%
COc1ccc(CNC(=O)c2ccc(C)c(S(=O)(=O)Nc3ccccc3C)c2)cc1,i
COC(=O)c1c(NC(=O)COc2ccc(C)cc2Br)sc2c1CCCC2,i
O=C(COc1ccc(Br)cc1Cl)Nc1ccc(S(=O)(=O)N2CCOCC2)cc1,i
O=C(Nc1ccc2oc(-c3cc(F)c(F)cc3Cl)nc2c1)c1ccc([N+](=O)[O-])cc1,5.9%
CCc1cccc(C)c1NC(=O)C(C)Sc1ccc(Cl)cc1 (stereo not given),i
Cc1cc(C)nc(SCC(=O)Nc2ccc(Br)cc2)n1,i
CS(=O)(=O)CCC(C(=O)OC(c1ccccc1)c1ccccc1)N1C(=O)c2ccccc2C1=O (stereo not given),i
Cn1c(SCCOc2ccccc2F)nc2ccccc21,26.8%
Cc1ccc(Nc2ccc(S(=O)(=O)C(F)F)cc2[N+](=O)[O-])cc1,i
CN(c1ccccc1C(=O)Nc1cccnc1)S(C)(=O)=O,i
COCCNC(=S)Nc1ccc(C)c(F)c1,i
CC(=O)Nc1cccc(NC(=O)c2ccoc2C)c1,3.7%
O=C(COC(=O)C1C=CCCC1)c1ccccc1 (stereo not given),i
Cc1cc(C)c(NC(=O)c2ccc(C(C)(C)C)cc2)c(C)c1,?
CS(=O)(=O)c1ncc(Cl)c(C(=O)Nc2cc(C(F)(F)F)ccc2Cl)n1,17.1µg/mL*
COc1cccc(-c2nn(-c3ccccc3)cc2C(=O)Nc2ccccc2Cl)c1,23.2%
COc1ccccc1N1CCN(c2ccc([N+](=O)[O-])c(C(=O)O)c2)CC1,i
CCOc1ccc(-n2nc3cc(C)c(NC(=S)NC(=O)c4ccc(C)cc4)cc3n2)cc1,i
Cc1ccc(C(=O)Nc2cccc(NC(=O)c3ccc(C)o3)n2)o1,i
C=CCSc1nc(C)c2cc(C)cc(C)c2n1,i
CCOC(=O)c1ccccc1NC(=O)c1cccc(F)c1,i
COc1cc(CNn2cnnc2)ccc1OCC(=O)NC(C)(C)C,i

# Compounds listed so far with a nitro group on carbon (five):
Molecule,Mtb growth
O=C1C2=C(Nc3ccccc3SC2c2ccccc2[N+](=O)[O-])c2ccccc21 (stereo not given),19.5%
Cn1c(CSCc2ccc(Cl)c(Cl)c2)nnc1SCC(=O)Nc1ccc([N+](=O)[O-])cc1,3.9%
O=C(Nc1ccc2oc(-c3cc(F)c(F)cc3Cl)nc2c1)c1ccc([N+](=O)[O-])cc1,5.9%
Cc1ccc(Nc2ccc(S(=O)(=O)C(F)F)cc2[N+](=O)[O-])cc1,i
COc1ccccc1N1CCN(c2ccc([N+](=O)[O-])c(C(=O)O)c2)CC1,i

# More entries.
Molecule,Mtb growth
COc1ccc(NC(=O)Nc2ccc(C(=O)N3CCOCC3)cc2)cc1,i
COc1cc(NC(=S)NCCC(c2ccccc2)c2ccccc2)c(OC)cc1Cl,i
Cc1ccc(-c2csc3ncnc(SCC(=O)NCc4ccc5c(c4)OCO5)c23)cc1,i
COc1ccccc1N(CC(=O)Nc1ccccc1C(=O)N1CCCC1)S(C)(=O)=O,i
O=C(CNC(=O)c1ccc(Cl)cc1)OCc1ccc(Br)cc1,i
COc1cccc(NC(=S)Nc2cc(-c3ccccc3)[nH]n2)c1,45.5%
Cc1ccc(-c2nnc(Nc3cccc(O)c3)c3ccccc23)cc1S(=O)(=O)N(C)C,0.6%
CC(=O)Oc1cc2c(cc1Cl)C1(CC(c3ccccc3Cl)O2)CC(C)(C)NC(=S)N1 (stereo not given),2.84µg/mL*
CCOc1cc(C(=S)N2CCN(C)CC2)ccc1OCC(=O)N1CCCC1,i
COC(=O)c1cc(NC(=O)c2ccc(-c3cccc(Cl)c3Cl)o2)cc(C(=O)OC)c1,i
COc1ccc(NC(=O)c2ccc(OCC(=O)Nc3cccc(C(F)(F)F)c3)cc2)cc1Cl,6.6%
CCCCn1c(-c2cc(Cl)ccc2OC)n[nH]c1=S,i
COC(=O)c1cc(C)sc1NC(=O)c1cccnc1,i
CCC(C)NCC(=O)Nc1cc(C(F)(F)F)cc(NC(=O)CNC(C)CC)c1Cl (stereo not given),i
Cc1c(Cl)cccc1NC(=O)CSc1nc2sc3c(c2c(=O)[nH]1)CCCC3,i
O=C(Cc1c(F)cccc1Cl)Nc1nc2ccccc2s1,?
CC(=O)Nc1ccc(Nc2ncnc3sc(C)c(C)c23)cc1,i
Cc1ccc(S(=O)(=O)Nc2ccc(NC(=O)CN3CCCCC3)cc2)cc1,i
CCOc1cc(C(=O)Nc2ccccc2F)ccc1OCc1ccccc1,i
COc1ccc(S(=O)(=O)Oc2ccc(Cl)cc2NC(C)=O)cc1,i
CC(C)Oc1ccccc1NC(=O)c1ccccc1OCC(=O)NC(C)c1ccccc1 (stereo not given),3.8%
N#C/C(=C\c1cn(-c2ccccc2)nc1-c1cccs1)c1nc2ccccc2c(=O)[nH]1,i
NC(=O)c1c(NC(=O)c2cc3ccccc3o2)sc2c1CCCCC2,i
CC(C)=CCOc1ccc2c(C)cc(=O)oc2c1C,3.5%
COC(=O)c1ccccc1NC(=O)c1cnn2cccnc12,i
CCOC(=O)c1c(NC(=O)c2cc(OC)c(OC)c(OC)c2)sc2c1CCCCC2,i
CCc1nc2ccccc2n1Cc1ccccc1F,i
COc1ccc(CCNC(=O)c2sc3ccccc3c2Cl)cc1OC,3.9%
Cc1cc(Br)cc(C)c1NC(=O)c1ccc(C#N)cc1F,i
Cc1c(CCC(=O)O)c(=O)n2c([nH]c3ccccc32)c1C#N,i
Cc1cc(C=O)c(C)n1-c1ccc(F)c(Cl)c1,i
COc1ccc(C=O)cc1OCc1ccc(F)cc1,3.2%
Cc1cc(NS(=O)(=O)c2ccc(CC(C)C)cc2)no1,i
Cc1cc(NC(=O)C2CC(c3c(F)cccc3Cl)=NO2)no1 (stereo not given),i
S=c1[nH]nc(-c2ccc(Cl)cc2Cl)n1N=Cc1cccnc1,2.9%
COC(=O)c1cc(OC)c(OC)cc1NC(=O)C1CC1,i
Cc1cccc(C)c1OCc1nnc(SCC(=O)Nc2cccc3ccccc23)o1,1.7%
O=C(Nc1ccc(F)cc1)c1ccccc1NC(=O)C1CCCN1S(=O)(=O)c1ccccc1 (stereo not given),i
CC(=O)Nc1ccc(-c2nnc(SCc3nc4ccccc4[nH]3)n2C)cc1,i
Cc1onc(-c2ccccc2Cl)c1C(=O)Nc1ccc(CC#N)cc1,10.3%
O=C(COc1ccc(S(=O)(=O)NC2CCCCC2)cc1)Nc1cc(Cl)c(Cl)cc1Cl,i
COc1cc(OC)c([N+](=O)[O-])cc1/C=C(/C#N)c1ccc(Cl)cc1,7.6%
Cc1nnc(Sc2c(N)n(C)c(=O)n(C)c2=O)s1,0.5%
CCOc1ccccc1NC(=S)NC(=O)c1ccc(Br)o1,i
CCn1c(Cc2ccccc2)nnc1SCC(=O)Nc1ccc(OC)c(Cl)c1,i
COc1cc(NC(=S)NCc2cccnc2)cc(OC)c1,i
O=C(Nc1nccs1)C1Cc2ccccc2CN1S(=O)(=O)c1cccs1 (stereo not given),9.8%
CCOc1ccc(NC(=O)Nc2ccc(C(=O)N3CCOCC3)cc2)cc1,i
Cc1ccc(Cn2cnc3sc4c(c3c2=O)CCCC4)cc1,8.41µg/mL*
CCc1ccc(N2CC34C=CC(O3)C(C(=O)OC)C4C2=O)cc1 (stereo not given),i
CC(=O)c1cccc(NC(=S)Nc2c(C)nn(C)c2C)c1,0.8%
COc1c(Cl)cc(CO)cc1Br,i
Cc1ccc(-n2c(C)cc(C=O)c2C)c(C)c1,i
O=C(c1ccco1)N1CCN(C(=O)C(Sc2ccccc2)c2ccccc2)CC1 (stereo not given),i
Cc1cc(NC(=O)COc2cccc([N+](=O)[O-])c2)no1,i
S=c1[nH]nc(COc2ccc(Cl)c(Cl)c2)n1-c1ccccc1,i
O=C(Nc1ccc(F)cc1)c1ccc(Cl)cc1[N+](=O)[O-],i
Cc1ccc(-n2c(SCC(N)=O)nc3ccc(I)cc3c2=O)cc1,i
CCOCC(=O)Nc1ccc(I)cc1,23.9%
CCN(CC)c1ccc(NC(=S)NCC(C)C)cc1,5.43µg/mL*

# (next part)
Molecule,Mtb growth
COc1ccc(CCNC(=O)c2nn(C)cc2Cl)cc1,i
Cc1c(N2C(=O)c3cccc4c(Cl)ccc(c34)C2=O)c(=O)n(-c2ccccc2)n1C,i
COc1cc(/C=C/[N+](=O)[O-])cc(Cl)c1OCc1ccccc1C#N,17.9µg/mL*
Cc1cccc2sc(NC(=O)c3ccccc3Br)nc12,30.3%
O=C(Nc1ccccc1)c1ccc(CSc2nnc(-c3ccncc3)n2-c2ccccc2)cc1,i
C=CCn1c(SCC(=O)N2CCCCCC2)nc2scc(-c3ccc(OC)cc3)c2c1=O,35.1%
C=CCNCCCCOc1cc(C)cc(C(C)C)c1,i
COc1ccc(NC(=S)NNC(=O)COc2cccc(C(F)(F)F)c2)cc1OC,i
CC(C)CCNC(=O)CN(Cc1c(F)cccc1Cl)S(=O)(=O)c1ccc(Cl)cc1,i
Cc1cccc(C)c1OCCOCC(O)CN1CCN(c2ccc(F)cc2)CC1 (stereo not given),6.5%
Cc1ccc(-c2cc3ccccc3oc2=O)cc1N,i
COc1ccc(NS(=O)(=O)c2cc(OC)ccc2OC)c(OC)c1,i
Cc1cc(=O)n2[nH]c(NCc3cccs3)nc2n1,5.3%
COC(=O)Cc1c(C)c2ccc(OCc3cc([N+](=O)[O-])ccc3OC)cc2oc1=O,i
O=C(NCCSCc1ccccc1)c1ccc2c(=O)n(CCC3=CCCCC3)c(=S)[nH]c2c1,i
CCc1ccc(OCC(=O)O/N=C(\N)c2ccc([N+](=O)[O-])cc2)c(Br)c1,i
Cc1cc(C)cc(C(=O)Nc2nc3ccc(Cl)cc3s2)c1,i
CCN(CC)C(=O)CSc1nc(N)cc(=O)[nH]1,i
Cc1ccc(OCCn2cncn2)c(I)c1,i
CCN1CCN(c2ccc([N+](=O)[O-])c(-n3nc(-c4ccc(Cl)cc4)c4ccccc4c3=O)c2)CC1,5.6µg/mL*
CCc1cccc(OCCn2ccnc2)c1,i
C/C=C/c1ccc(OCCN2CCCCCC2)c(OC)c1,i
O=C(Cc1cccs1)NCCCN1CCOCC1,i
Cc1cc(C)n(-c2nc3ccccc3nc2N2CCN(C(=O)c3ccc(Cl)cc3)CC2)n1,0.6%
Cc1ccc2nc(-c3ccc4c(c3)OCO4)cc(C(=O)NCc3cccnc3)c2c1,2.0%
Cc1nn(-c2ccccc2)c(C)c1NC(=O)c1ccc(Br)cc1,42.4%
Cc1ccc(/C(N)=N/OC(=O)COc2ccc(Br)cc2C)cc1,8.8%
CC(=O)Oc1cc(OC(C)=O)c2c3c(c(=O)oc2c1)CCC3,i
O=C(Nc1nc2ccc(Cl)cc2s1)c1ccc2c(c1)OCO2,0.4%
Cc1c(NC(=O)CSCC(=O)Nc2ccc3ccccc3c2)c(=O)n(-c2ccccc2)n1C,i
Cc1ccc(OCCCCN2CCNCC2)c(Br)c1,i
O=C(CCC1CCCCC1)NC1(C(F)(F)F)NC(=O)N(Cc2ccccc2)C1=O (stereo not given),i
CCOc1ccc(NC(=O)Nc2ccc(Cl)c(C(F)(F)F)c2)cc1,1.4%

# Only part of the results is shown; rates above refer to the full screens.
